Screens from PubChem.
VDR inhibitor: inhibitors of human vitamin D receptor | 0.93% of 400,000 active | AID 504847 | Potency, µM, inactives show max response, negative = inhibition, hits mostly inhibitors | VDR-SRC2-3 peptide fluorescence polarization, 2 h; active = well fitted inhibition curve with a large enough effect; inconclusive = small, poorly fitted or top-dose-only effect, or another doubt; inactive = no such curve, though single readings can be large or run the other way; also: series mostly up to about 120 µM
Target sequence (P11473 whole entry, looked up): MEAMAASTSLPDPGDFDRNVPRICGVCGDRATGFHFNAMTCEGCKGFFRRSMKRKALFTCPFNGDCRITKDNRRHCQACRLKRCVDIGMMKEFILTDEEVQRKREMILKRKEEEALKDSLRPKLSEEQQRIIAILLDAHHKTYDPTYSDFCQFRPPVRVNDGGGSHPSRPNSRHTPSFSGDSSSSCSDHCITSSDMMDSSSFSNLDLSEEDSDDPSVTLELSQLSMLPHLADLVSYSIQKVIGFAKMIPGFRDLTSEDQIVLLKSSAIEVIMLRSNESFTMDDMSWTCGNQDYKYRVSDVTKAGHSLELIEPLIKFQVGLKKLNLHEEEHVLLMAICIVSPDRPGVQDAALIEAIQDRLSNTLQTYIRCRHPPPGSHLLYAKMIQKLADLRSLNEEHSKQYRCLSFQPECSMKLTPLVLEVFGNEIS
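Reagent solutions, kept cold and dark, are dispensed first; compounds are then pinned in at 23 nl, plates briefly spun, and incubated 2 h at ambient temperature. Inhibition of VDR–SRC2-3 peptide binding is read by fluorescence polarization.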
* = called active by the depositor; ? = inconclusive; [ ] = another dose, or the depositor's remark. % is scaled to controls: 0 for no effect and ±100 for the full control effect; potency is read from the fitted curve at half-maximal effect.

SMILES | VDR inhibitor
CCN(CC)c1ccc(NC(=O)CCCN2C(=O)C(c3ccccc3)Oc3cccnc32)c(C)c1 (stereo not drawn) | 16%
COc1ccc(-c2nn3c(=O)cc(CN4CCN(C(=O)Nc5ccc(C)c(Cl)c5)CC4)nc3s2)cc1 | -1%
Cc1ccc(C(=O)c2coc3ccc(O)cc23)cc1 | -12%
COc1ccccc1C1c2ccc3ccccc3c2Oc2ncn(CCCO)c(=N)c21 (stereo not drawn) | 4%
CC(=O)c1ccc(-n2nncc2C(C)(C)C)cc1 | 2%
Cc1cccc(C)c1NC(=O)COC(=O)c1cc(=O)[nH]c2ccccc12 | -14%
Cc1ccc(C)c(NC(=O)CN2C(=O)CC(C)S(=O)(=O)c3ccccc32)c1 (stereo not drawn) | 12%
CC(C)(C)Cc1nnc(NS(=O)(=O)Cc2ccccc2)s1 | -7%
Cc1ccnc(NC(=O)c2cc(S(=O)(=O)N3CCCCC3)ccc2Cl)c1 | -5%
O=C(NCC(=O)N(CC1CCCO1)C(C(=O)NC1CCCCC1)c1ccccc1)c1cccs1 (stereo not drawn) | -9%
COc1ccccc1C(C(=O)NCc1ccccc1)N(C(=O)c1csnn1)C1CC1 (stereo not drawn) | 19%
COc1ccc(S(=O)(=O)Nc2ccc3c(c2)CC(=O)N([C@@H](C)CO)C[C@@H](C)[C@@H](CN(C)Cc2ccccc2)O3)cc1 | -12%
O=C(O)CN1CCN(Cc2ccc(F)cc2)C1=O | -14%
O=C(NCCOc1ccccc1)c1cc(S(=O)(=O)N2CCOCC2)ccc1F | 4%
Cc1cc(C)cc(-n2ccnc2SCC(=O)O)c1 | -19%
COc1ccc(C(C)(C)C)cc1NC(=O)c1ccccc1-n1cnnn1 | -8%
COc1cc(NS(=O)(=O)c2ccc(N/C=C(\C#N)c3nc4cc(Cl)ccc4o3)cc2)nc(OC)n1 | 15%
COc1ccc(NC(=O)CN(C)C(=O)c2ccc(N3CCOCC3)c([N+](=O)[O-])c2)cc1 | -7%
CCOC(=O)c1sc(NC(=O)Cn2nnc3sc4c(c3c2=O)CCCC4)nc1C | 2%
COc1ccccc1NC(=S)N(Cc1ccc(Cl)cc1)CC1CCC(C(=O)O)CC1 (stereo not drawn) | 1%
CC1CCCCC1NC(=O)COC(=O)c1ccccc1NC(=O)c1ccco1 (stereo not drawn) | 2%
CCOC(=O)c1ccn(CSc2c(F)c(F)cc(F)c2F)n1 | -9%
C=CCc1ccc(OCC(O)CN2CCN(Cc3ccc(Cl)cc3)CC2)c(OC)c1 (stereo not drawn) | -14%
O=C(Nc1ccccc1)C1=C[C@@H](c2ccc(Br)cc2)C[C@@H](OCc2ccc(CO)cc2)O1 | -5%

Grouped by structure, those above containing a thiophene ring, fused or not (2)
SMILES | VDR inhibitor
O=C(NCC(=O)N(CC1CCCO1)C(C(=O)NC1CCCCC1)c1ccccc1)c1cccs1 (stereo not drawn) | -9%
CCOC(=O)c1sc(NC(=O)Cn2nnc3sc4c(c3c2=O)CCCC4)nc1C | 2%

(more compounds)
SMILES | VDR inhibitor
CCNC(=O)C1CC(=O)N(Cc2ccc3c(c2)OCO3)C(=Nc2ccc(F)cc2)S1 (stereo not drawn) | 11%
CSCCC(NC(=O)COc1ccccc1)C(=O)OCC(=O)c1ccccc1 (stereo not drawn) | -7%
COc1cccc(S(=O)(=O)N2CCN(c3ccccc3F)CC2)c1 | 1%
NC(=O)C1(c2ccccc2)OC1c1ccccc1 (stereo not drawn) | -15%
O=c1c(-c2cc(F)cc(F)c2)nc2cnc(N3CCNCC3)nc2n1C1CC1 | -20%
Cc1cc(C)n2c(SCC(=O)Nc3ccccc3)nnc2n1 | -12%
Cc1ccc(S(=O)(=O)N2C(=O)CCC2C(N)=O)cc1 (stereo not drawn) | -18%
OCCNCCCCOc1cccc(Br)c1 | ?
FC(F)(F)c1cnc(Nc2ccc(N3CCOCC3)cc2)c(Cl)c1 | 25%
O=C(CCCc1ccccc1)NC12CC3CC(CC(C3)C1)C2 | -13%
Cn1c(C(=O)O)c(CC(=O)Nc2ccc(F)cc2F)c2ccccc21 | -4%
N#Cc1ccc(S(=O)(=O)N2CCN(c3nc(-c4ccccc4)nc4ccccc34)CC2)cc1 | -19%

Some of these compounds in order of length of the SMILES, descending:
SMILES | VDR inhibitor
COc1ccc(C(C)(C)C)cc1NC(=O)c1ccccc1-n1cnnn1 | -8%
O=C(O)CN1CCN(Cc2ccc(F)cc2)C1=O | -14%
OCCNCCCCOc1cccc(Br)c1 | ?

Next section
SMILES | VDR inhibitor
COC(=O)c1ccccc1NC(=O)Cn1c(=O)n(-c2ccc(Cl)cc2)c(=O)c2c(C)c(C)sc21 | -12%
COc1ccc(NC(=O)C(NC(C)=O)C(=O)Nc2ccc(F)cc2)cc1 (stereo not drawn) | 11%
Cc1ccc(C)c(S(=O)(=O)N2CCN(C(=O)c3ccccn3)CC2)c1 | -2%
Cc1ccc(OCC(=O)N2CCCCCC2)c(C)c1 | 20%
CCOc1ccc(N(CC(=O)N2CCCCCC2)S(C)(=O)=O)cc1 | -17%
CCOC(=O)c1c(C)oc2ncnc(Nc3ccc(OC)c(OC)c3)c12 | 2%
O=c1c2ccccc2nc2n1CCN2 | 11%
O=C(NCCN1CCCC1)c1ccc2c(=O)n(CCc3ccccc3)c(=O)[nH]c2c1 | 12%
Cc1ccc(NC(=O)c2sc3ncnc(N4CCN(c5ccccn5)CC4)c3c2C)c(C)c1 | 1%
CCc1cccc(NC(=O)c2cc3c(=O)oc4ccc(C)cc4c3s2)c1 | -6%
CC(CN1CCN(C)CC1)OC(=O)c1cccc(F)c1 (stereo not drawn) | 2%
CCN1CCN(c2ncnc3sc(C)c(-c4ccccc4)c23)CC1 | 1%
Cc1ccc(C(=O)NNC(=O)CCCN2C(=O)/C(=C/c3ccccc3Cl)SC2=S)cc1 | -8%
COc1ccc(S(=O)(=O)Nc2cc(Cl)ccc2-n2cncn2)cc1 | -15%
O=C1/C(=C/c2cccnc2)CCC/C1=C\c1cccnc1 | 50µM*
COc1ccccc1N1CCN(C(=O)C2CCCN(S(=O)(=O)c3ccc(C)cc3)C2)CC1 (stereo not drawn) | ?
COc1cccc(O)c1CN1CCC(n2nccc2NC(=O)c2ccc3c(c2)OCO3)CC1 | 1%
Cc1cc(C)nc(SCC(=O)N(C)C)n1 | 3%
Cc1cc(C)c2nc(-c3ccccn3)cc(C(=O)NCc3ccco3)c2c1 | -8%
O=S1(=O)CCO[C@H]2Cc3ccccc3[C@H]2N1Cc1ccccc1Br | -4%
O=C(/C=C/c1ccc(Cl)cc1)NC(=S)Nc1ccc(C(=O)O)cc1 | -19%
COc1ccc(C2CCCN2C(=O)Nc2ccccc2)cc1OC (stereo not drawn) | -5%
COc1ccc(-c2c[n+]3c(n2-c2ccccc2)SCC3)cc1OC | 7%
COC(=O)C1=C(C)NC(=O)NC1c1ccccc1 (stereo not drawn) | -1%
COc1ccc(OC)c(C2C3=C(CCCC3=O)NC3=C2C(=O)CCC3)c1 | -5%
O=C(Nc1ccccc1N1CCCCC1)c1ccco1 | 21%
COc1cc(NS(=O)(=O)c2ccc(NC(=S)NC(=O)c3cccs3)cc2)nc(OC)n1 | -21%
Cc1ccc(C(=O)c2sc(Nc3ccccc3)c(C#N)c2N)cc1 | 0%
Cc1nc(-c2ccc(C)c(N3CCN(C(=O)Nc4cccc(Cl)c4C)CC3)c2)no1 | 0%
O=C(CN1C(=O)NC2(CCCC2)C1=O)NCCc1ccccc1 | 10%
CCOC(=O)c1cnc2nc(COc3ccccc3)[nH]n2c1=O | -24%
CNS(=O)(=O)c1cn(CC(=O)NCc2ccccc2OC)cc1S(=O)(=O)NC | 3%
COc1ccc(N2CCN(Cc3nc4scc(-c5ccccc5)c4c(=O)[nH]3)CC2)cc1 | 41%[activator]
COc1ccc(S(=O)(=O)N(C)CC(=O)Nc2ccc(C(N)=O)cc2)cc1OC | 8%
CCN(CC)S(=O)(=O)c1cccc(-c2nnc(SCC(=O)NC)n2N)c1 | 0%
Cc1ccccc1NC(=S)N1CCN(Cc2ccccc2)CC1 | 14%
O=C(NC1CCCCC1)C(c1ccncc1)N(C(=O)c1ccco1)c1ccc(F)cc1 (stereo not drawn) | -1%
Cc1ccc(N2C(=O)N(CC(=O)Nc3ccccc3C(F)(F)F)C(=O)C2C)cc1 (stereo not drawn) | -18%
N#Cc1c(NC(=O)C2CC(c3c(F)cccc3Cl)=NO2)sc2c1CCC2 (stereo not drawn) | -5%
Cc1ccccc1NC(=O)CSc1nc2c(oc3ccccc32)c(=O)n1Cc1ccco1 | -9%
Cc1cc(F)ccc1S(=O)(=O)N1CCCOC1CNC(=O)C(=O)NCCc1c[nH]c2ccccc12 (stereo not drawn) | -2%
CCOc1cccc(NC(=O)c2ccc(S(=O)(=O)N3CCCC3)cc2)c1 | -11%
O=C1CN(CC(=O)Nc2cccc(Cl)c2Cl)c2ccccc2N1 | -23%
Cc1ccc(C2C(C(=O)c3cccs3)=C(O)C(=O)N2c2ccc(S(N)(=O)=O)cc2)cc1 (stereo not drawn) | 12%
CCN(CC)c1ccc(NC(=O)c2ccccc2OCC(=O)OC)cc1 | -15%
COc1ccc(OC)c(/C=N/NC(=O)C(=O)NCc2cccnc2)c1 | 4%
COc1ccccc1NC(=O)Nc1ccc(CC#N)cc1 | 2%
Cn1c(=O)c2[nH]c(CN3CCCCC3)nc2n(C)c1=O | -8%

Reprinted from the entries so far, 6 compounds:
SMILES | VDR inhibitor
O=C(NC1CCCCC1)C(c1ccncc1)N(C(=O)c1ccco1)c1ccc(F)cc1 (stereo not drawn) | -1%
Cc1ccc(N2C(=O)N(CC(=O)Nc3ccccc3C(F)(F)F)C(=O)C2C)cc1 (stereo not drawn) | -18%
N#Cc1c(NC(=O)C2CC(c3c(F)cccc3Cl)=NO2)sc2c1CCC2 (stereo not drawn) | -5%
Cc1ccccc1NC(=O)CSc1nc2c(oc3ccccc32)c(=O)n1Cc1ccco1 | -9%
Cc1cc(F)ccc1S(=O)(=O)N1CCCOC1CNC(=O)C(=O)NCCc1c[nH]c2ccccc12 (stereo not drawn) | -2%
CCOc1cccc(NC(=O)c2ccc(S(=O)(=O)N3CCCC3)cc2)c1 | -11%

More entries
SMILES | VDR inhibitor
COc1ccc(N(C(=O)c2cccc(C)c2)S(=O)(=O)c2ccc3c(c2)n(C)c(=O)n3C)cc1 | -14%
COc1ccccc1-n1nc(C(=O)NCc2ccco2)c2ccccc2c1=O | 5%
O=C1NCCCC1C(=O)Nc1ccccn1 (stereo not drawn) | 16%
CSCCC(NC(=O)c1ccccc1Br)C(=O)NNC(=O)c1ccncc1 (stereo not drawn) | -4%
Cc1noc(C)c1CSCC(=O)Nc1cc(Cl)ccc1N1CCCCC1 | -13%
CC(=O)N/C(=C/c1ccc2c(c1)OCO2)C(=O)NCc1ccccc1 | -19%
CCNC(=S)NCc1ccc(F)cc1 | 4%
CNC(=O)CSc1nnc(COc2ccc([N+](=O)[O-])cc2)n1C | 14%
Brc1cc(/C=N/n2cnnc2)oc1Br | 4%
COc1ccc(OCCCC(=O)Nc2cc(S(=O)(=O)N3CCCCC3)ccc2OC)cc1 | 2%
Cc1ccc(NC(=O)CSCC(=O)N2c3ccccc3CCc3ccccc32)cc1 | 6%
COc1ccc(S(=O)(=O)N(C)C[C@H]2Oc3c(NC(=O)Nc4ccc5c(c4)OCO5)cccc3C(=O)N([C@H](C)CO)C[C@@H]2C)cc1 | -19%
CCCc1cc(C(=O)Cc2ccc(C(=O)OCC)o2)c(O)cc1O | -4%
CCOC(=O)C1=C(C)OC(N)=C(C#N)C1c1cc(C)sc1C (stereo not drawn) | 2%
CCC1=C(OC(=O)N(CC)CC)N2C(=O)OC(=NCC3CC3)[C@]2(Cc2ccccc2)[C@H]2C1=CC[C@H]1C(=O)N(C)C(=O)[C@H]12 | ?
O=C(CSCc1ccccc1Cl)N1CCN(c2ccc(F)cc2)CC1 | 10%
CC(C)(C)c1ccc(C(=O)NC(=S)NCc2ccco2)cc1 | 7%
COc1ccc(-c2nc3cnc(Nc4cccc(OC)c4)nc3n(C)c2=O)cc1 | 4%
Cc1ccc(CNC(=O)c2cc(S(=O)(=O)N3CCOCC3)cn2C)cc1 | -26%
CCOc1ccc(N2CC(NS(=O)(=O)c3cccnc3)CC2=O)cc1 (stereo not drawn) | 9%
C=CCC[C@H](Cc1ccc(F)cc1)C(=O)OC[C@H](Cc1c[nH]c2ccccc12)NC(=O)[C@@H](CC=C)CC(=O)N[C@@H](CO)Cc1ccccc1 | -9%
O=C(N/N=C/c1ccco1)C1CC1(c1ccccc1)c1ccccc1 (stereo not drawn) | -5%
CC(C)CCOc1ccc(C(=O)NCC2OCCc3ccccc32)cc1 (stereo not drawn) | 8%
O=C(O)C1Nc2c(O)cc(Cl)c([N+](=O)[O-])c2C2C=CCC12 (stereo not drawn) | -21%
CC(CN1CCCCC1)NC(=O)c1cc(-c2ccccn2)nc2ccc(Cl)cc12 (stereo not drawn) | -3%
CCCCN(C(=O)c1ccco1)c1nnc(-c2cc(OC)c(OC)c(OC)c2)s1 | 2%
CC(C)(C)NNC(=S)Nc1ccc(S(=O)(=O)N2CCOCC2)cc1 | 19%
CC(C)(C)c1[nH]ncc1[N+](=O)[O-] | -9%
C=C(C)[C@H]1CC[C@]2(C(=O)O)CC[C@]3(C)[C@@H](CC[C@H]4[C@@]5(C)CC[C@@H](O)C(C)(C)[C@@H]5CC[C@@]43C)[C@H]12 | -6%
CN(C)/C=C/c1c(C#N)c(=O)ncn1Cc1ccccc1 | -9%
COc1cc(OC)cc(-c2cc3nc(C4CCN(C(=O)OC(C)(C)C)CC4)cc(=O)n3[nH]2)c1 | 3%
O=C(CCS(=O)(=O)c1ccccc1)Nc1nnc(-c2ccco2)o1 | -2%
O=C(Nc1cccc(F)c1)N1CCC2(CC1)CCN(S(=O)(=O)c1ccccc1)CC2 | 8%
O=[N+]([O-])c1cc(C(F)(F)F)ccc1NCCc1ccncc1 | -4%

The list is partial, so the mix of outcomes need not match the whole.
